Screening results as filed in PubChem BioAssay.
VDR inhibitor: vitamin D3 receptor (human) inhibition; VDR-SRC2-3 peptide fluorescence polarization, 2 h; Potency, µM, without a hit: max response, negative = inhibition, hits mostly inhibitors; hit rate 0.93% among 400,000; AID 504847; active means well fitted inhibition curve with a large enough effect; inconclusive means small, poorly fitted or top-dose-only effect, or another doubt; inactive means no such curve, though single readings can be large or run the other way; further: series mostly up to about 120 µM
Target sequence (P11473 whole entry, looked up): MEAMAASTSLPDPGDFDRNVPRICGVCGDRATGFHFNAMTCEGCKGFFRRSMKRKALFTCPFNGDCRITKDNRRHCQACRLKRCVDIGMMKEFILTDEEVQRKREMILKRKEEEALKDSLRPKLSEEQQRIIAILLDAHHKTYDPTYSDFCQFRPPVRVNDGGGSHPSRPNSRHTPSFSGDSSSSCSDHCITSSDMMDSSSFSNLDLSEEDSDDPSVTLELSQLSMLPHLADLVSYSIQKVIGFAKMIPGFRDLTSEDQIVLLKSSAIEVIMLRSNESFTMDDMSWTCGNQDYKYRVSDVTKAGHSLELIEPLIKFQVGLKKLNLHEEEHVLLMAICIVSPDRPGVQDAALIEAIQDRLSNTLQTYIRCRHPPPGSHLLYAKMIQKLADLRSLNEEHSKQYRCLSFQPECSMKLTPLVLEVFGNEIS
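After 23 nl compound addition and a short centrifugation, plates sat for 2 hours at ambient temperature; polarization of fluorescence then indicated loss of VDR binding to peptide SRC2-3.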
An asterisk follows results filed as active; ? = inconclusive; & = joins results of further samples. On the % scale 0 is the no-effect control and ±100 the full control effect; potency means the concentration at half of the fitted maximal effect. Only part of the results is shown (hit frequency here may not be typical).

| SMILES | VDR inhibitor |
| --- | --- |
| NS(=O)(=O)c1ccc(CNC(=O)c2ccc(C(=O)c3ccccc3)cc2)cc1 | 9.9% |
| CNC(=O)CSc1nc2c([nH]c3ccccc32)c(=O)n1CCOC | -20.5% |
| O=C(Nc1cccc(-c2cnc3ccccc3n2)c1)c1ccco1 | 1.1% |
| Cc1ccc(-n2ncc3c(NCCc4ccccc4)ncnc32)cc1 | -11.1% |
| CCOC(=O)N1CCN(CCC(=O)Nc2ccc(C)cc2)CC1 | -0.2% |
| CCN(c1ccccc1)S(=O)(=O)c1ccc(C(=O)Nc2ccc(C)cn2)cc1 | -6.3% |
| Cc1oc2c(cc(NS(=O)(=O)c3ccc(C(C)C)cc3)c3ccccc32)c1C(=O)OCc1ccccc1 | 3.1% |
| COC(=O)c1sccc1NC(=O)c1ccc(OC)c(OC)c1 | -1.1% |
| O=C(CN(Cc1ccccc1)C(=O)c1ccc2c(c1)OCCO2)NCc1ccc2c(c1)OCO2 | -10.8% |
| CCc1ccc(OCc2nnc(SCC(=O)N3CCN(c4ccccc4)CC3)o2)cc1 | 13.7% |
| O=C(NC1(C(F)(F)F)NC(=O)N(c2ccc(F)cc2)C1=O)c1ccncc1 (stereo not given) | -4.4% |
| O=C(O)CCn1cc(/C=C/C(=O)c2ccc(Cl)cc2)c(-c2ccc(Br)cc2)n1 | 39.8µM* |
| COc1ccc(C(C)(C)C)cc1NC(=O)CCn1[nH]c(=O)ccc1=O | -6.8% |
| O=C(O)/C=C/c1ccc(S(=O)(=O)Nc2ccc(OCc3ccccc3)cc2)cc1 | -4.0% |
| CC(=O)Oc1c(C)cccc1C(=O)O | -4.0% |
| COC(=O)CNC(=O)/C=C/c1cc(Br)ccc1OC | 9.3% |
| O=C(NC(=S)Nc1ccc2[nH]c(=O)[nH]c2c1)c1ccccc1Cl | -1.8% |
| COCCNC(=O)c1cnn(-c2cccc(C)c2)c1-n1cccc1 | 1.1% |
| COc1ccc(OCCCC(=O)NNC(=O)CCN2CCN(c3ccccc3)CC2)cc1 | 2.7% |
| N/C(=N\OC(=O)c1cccs1)c1ccccc1 | -1.9% |
| COC(=O)c1c(C)[nH]c(C)c1-c1cccc([N+](=O)[O-])c1 | -24.6% |
| NS(=O)(=O)c1cccc(NC(=O)COC(=O)CNC(=O)c2ccc(-c3ccccc3)cc2)c1 | 2.7% |
| Cc1c(C)c2c(OCC(=O)N3CCC[C@H]3C(=O)O)cc3c(c2oc1=O)CCC(C)(C)O3 | 1.4% |
| C/C(=N\N1C(=O)CSC1=S)c1ccc(Br)cc1 | ? |
| O=C(CNC(=O)c1ccccc1F)NCCc1ccccc1F | 12.6% |
| CCOC(=O)c1c(S(=O)(=O)NCC2CCN(Cc3cccc(F)c3)CC2)c(C)n(C)c1C | 12.6% |
| Cc1ccc(S(=O)(=O)c2cnc(SCC(=O)Nc3ccc4c(c3)OCCO4)[nH]c2=O)cc1 | -3.1% |
| Cc1cc(C)c(S(=O)(=O)Nc2cnc3ccccc3c2)c(C)c1 | 4.8% |
| O=[N+]([O-])c1ccccc1S(=O)(=O)N1CCN(c2ccc(F)cc2)CC1 | -3.7% |
| CC(=O)Nc1ccc(S(=O)(=O)N2CCN(C(=O)Cc3ccccc3)CC2)cc1 | ? |

Compounds listed so far that have an aryl thioether with sulfur outside any ring (three):
| SMILES | VDR inhibitor |
| --- | --- |
| CNC(=O)CSc1nc2c([nH]c3ccccc32)c(=O)n1CCOC | -20.5% |
| CCc1ccc(OCc2nnc(SCC(=O)N3CCN(c4ccccc4)CC3)o2)cc1 | 13.7% |
| Cc1ccc(S(=O)(=O)c2cnc(SCC(=O)Nc3ccc4c(c3)OCCO4)[nH]c2=O)cc1 | -3.1% |

The list goes on:
| SMILES | VDR inhibitor |
| --- | --- |
| O=C(c1ccccc1)N1CCN(C(=S)NCc2ccc3c(c2)OCO3)CC1 | -7.4% |
| Cc1ccc(N2C(=O)CCSC23C(=O)N(Cc2ccccc2)c2ccccc23)cc1 (stereo not given) | 0.6% |
| O=S(=O)(c1ccccc1)c1nc(-c2cccc(Cl)c2)oc1N1CCOCC1 | -0.1%&-17.7% |
| CC1=C(C(=O)N(C)Cc2ccccc2)C2(CCC(C)CC2)OC1=O (stereo not given) | -26.1% |
| Cc1ccccc1Cn1c(=O)n(Cc2ccc(Cl)cc2)c(=O)c2cccnc21 | -28.5% |
| Cc1ccc(-n2ncc3c2ncn2c(C)nnc32)cc1C | 6.2% |
| Cc1ccc(S(=O)(=O)Cc2ccc(C(=O)NCc3ccc4c(c3)OCO4)o2)cc1 | -0.7% |
| O=C(O)COCC(=O)NCc1csc2ccccc12 | -3.4% |
| CCOc1ccc(S(=O)(=O)Nc2cc3c(C(=O)OCc4ccccc4)c(C)oc3c3ccccc23)cc1 | -21.0% |
| CCC(=O)NCCc1cc2ccc(C)cc2[nH]c1=O | -4.6% |
| C=C(c1ccc(OC)cc1)c1ccc(OC)cc1 | 0.8% |
| N#CCCn1c(=O)c(-c2cc(F)cc(F)c2)nc2cnc(OCc3ccccc3)nc21 | 2.9% |
| CSc1nc(-c2ccccc2)nc(NC(=O)c2ccccc2)c1C(C)=O | -14.5% |
| COc1ccc(-c2nc(-c3cccs3)c(-c3cccs3)[nH]2)cc1OC | -5.6% |
| CCN(CC(=O)Nc1ccccc1C(=O)OC)S(=O)(=O)c1ccccc1 | -5.8% |

Reformatted: results already given
VDR inhibitor | mol
-26.1% | CC1=C(C(=O)N(C)Cc2ccccc2)C2(CCC(C)CC2)OC1=O (stereo not given)
-28.5% | Cc1ccccc1Cn1c(=O)n(Cc2ccc(Cl)cc2)c(=O)c2cccnc21
6.2% | Cc1ccc(-n2ncc3c2ncn2c(C)nnc32)cc1C

Following part
| SMILES | VDR inhibitor |
| --- | --- |
| CC[C@H](C)[C@H](NC(=O)[C@H](CCC(=O)O)NC(=O)[C@H](CO)NC(=O)[C@@H](NC(=O)[C@H](C)N)C(C)C)C(=O)N[C@@H](CCC(N)=O)C(=O)N[C@@H](CC(C)C)C(=O)N[C@@H](CCSC)C(=O)N[C@@H](Cc1cnc[nH]1)C(=O)N[C@@H](CC(N)=O)C(=O)N[C@@H](CC(C)C)C(=O)NCC(=O)N[C@@H](CCCCN)C(=O)N[C@@H](Cc1cnc[nH]1)C(=O)N[C@@H](CC(C)C)C(=O)N[C@@H](C)C(=O)N[C@@H](CO)C(=O)N[C@H](C(=O)N[C@@H](CCC(=O)O)C(=O)N[C@@H](CCCNC(=N)N)C(=O)N[C@@H](CCSC)C(=O)N[C@@H](CCC(N)=O)C(=O)N[C@@H](Cc1c[nH]c2ccccc12)C(=O)N[C@@H](CC(C)C)C(=O)N[C@@H](CCCNC(=N)N)C(=O)N[C@@H](CCCCN)C(=O)N[C@@H](CCCCN)C(=O)N[C@@H](CC(C)C)C(=O)N[C@@H](CCC(N)=O)C(=O)N[C@@H](CC(=O)O)C(=O)N[C@H](C(=O)N[C@@H](Cc1cnc[nH]1)C(=O)N[C@@H](CC(N)=O)C(=O)N[C@@H](Cc1ccccc1)C(=O)O)C(C)C)C(C)C | -12.4% |
| NS(=O)(=O)c1ccc(CCNC(=O)CCCOc2ccccc2)cc1 | 8.1% |
| N#Cc1ccsc1NC(=O)CCN1CCN(C(c2ccccc2)c2ccccc2)CC1 | 21.2% |
| Cc1ccc(S(=O)(=O)c2nc(S(C)(=O)=O)sc2N2CCCCC2C)cc1 (stereo not given) | -13.1% |
| Cc1ccc(-n2c(O)c(/C=N/NC(=O)C3COc4ccccc4O3)c3ccccc3c2=O)cc1 (stereo not given) | 0.1% |
| C=C(C)COc1ccc(-c2nc(N)ncc2-c2ccc(Cl)cc2)c(O)c1 | 13.1% |
| O=C(CSc1c2c(nc3ccc(Cl)cc13)CCCC2)NCc1ccco1 | -28.2% |
| CCOC(=O)Cc1n[nH]c(=O)c2ccccc12 | 18.0% |
| c1cc(CN2CCN(C3CCCCCC3)CC2)ccn1 | -9.6% |
| CCC(=O)c1cn(CC(=O)Nc2ccc(C)cc2)c2ccccc12 | -4.8% |
| CC(C(=O)N1CCOCC1)N1C(=O)C2C3CC(C(Br)C3Br)C2C1=O (stereo not given) | -1.3% |
| O=C(c1cnc(N2CCOCC2)c2ccccc12)N1CCN(c2ccccc2)CC1 | -0.6% |
| COc1ccc(CNC(=O)CCC(=O)Nc2nnc(C(C)C)s2)cc1 | -6.7% |
| O=C(CN1C(=O)/C(=C/c2ccc(F)cc2)SC1=S)N1CCN(CCc2ccccn2)CC1 | -0.2% |
| COc1ccc(NC(=O)C2(c3ccc(NC(=O)c4ccc(OC(C)=O)cc4)cc3)CCCC2)cc1 | -21.4% |
| Cc1ccc2c(C)c(C(=O)NCCN3CCCC(O)C3)oc2c1C (stereo not given) | -3.0% |
| Cn1c(=O)oc2cc(S(=O)(=O)N3CCC(C(=O)NCCc4ccccc4)CC3)ccc21 | 2.8% |
| Cc1ccc2[nH]c3c(=O)n4c(nc3c2c1)SCC4 | 2.3% |
| CC1CC(C)CN(C(=O)Cn2ncc3c([nH]c4ccccc43)c2=O)C1 (stereo not given) | -23.8% |
| O=C(c1ccccc1CCc1ccccc1)N1CCN(c2ccccn2)CC1 | -6.8% |
| COc1ccc(CN(CC(=O)NC2CCCCC2)C(=O)CCC(=O)Nc2nccs2)cc1 | 0.8% |
| C#CCSc1nnc(-c2cc3c(C(F)(F)F)nn(C)c3s2)n1C | 5.4% |
| Cc1cccc(CN2CCc3c([nH]c4ccccc34)C2)c1 | -1.2% |
| CCOc1cc(C(=O)NCc2ccncc2)cc(OCC)c1OCC | -9.0% |
| COCCCn1c(CCC(=O)O)ccc1-c1cccs1 | -2.3% |
| C=C(C)COc1ccc(-c2[nH]ncc2Oc2ccccc2OCC)c(O)c1 | 13.6% |
| C#C[C@]1(OC(C)=O)CCC2C3CCC4=CC(=O)CCC4C3CC[C@]21C (stereo not given in full) | ? |
| CSc1ccc(C(=S)N2CCN(Cc3ccccc3)CC2)cc1 | -18.9% |
| Cc1ccn2c(=O)nc(SCC(=O)NCc3ccccc3Cl)nc2c1 | -4.9% |
| O=C(NC(=S)Nc1cc([N+](=O)[O-])ccc1O)c1ccc2c(c1)OCO2 | -6.3% |
| Cc1ccc(S(=O)(=O)c2cn(Cc3ccc(F)cc3)c3cc(N4CCCC4)c(F)cc3c2=O)cc1 | 5.2% |
| CC1CCCC(NC(=O)CCCn2c(=O)[nH]c3cc(Cl)ccc3c2=O)C1C (stereo not given) | -15.7% |
| Cc1cc2ncn(S(=O)(=O)c3ccc(S(=O)(=O)N4CCOCC4)cc3)c2cc1C | 10.6% |
| O=[N+]([O-])c1cccc2nc(-c3ccccc3)c(-c3ccccc3)nc12 | -11.6% |
| CN1CCCC1CCNc1ccc2sc3ccccc3c(=O)c2c1 (stereo not given) | 8.4% |
| Cc1ccc(Nc2ccc(N3CCN(C(=O)c4ccc([N+](=O)[O-])cc4)CC3)nn2)cc1 | 7.9% |
| CCOC(=O)c1c(C)[nH]c(C(=O)COc2ccc3ccc(=O)oc3c2)c1C | 15.9% |
| O=C(CNC(=O)c1ccc2c(c1)OCCO2)N/N=C/c1ccc(O)cc1O | -13.1% |
| Nc1ccc(-c2nc3cc(N)ccc3n2CCO)cc1 | -8.7% |
| COc1ccccc1CNc1ccc2c(c1)CCC2 | -14.3% |
| O=C(Nc1ccc2c(c1)OCO2)OCc1ccccc1 | -7.3% |
| COc1ccc(C(C(=O)NC(C)(C)C)N(C(=O)CCC(=O)Nc2ccccn2)C2CCCCC2)cc1 (stereo not given) | -5.8% |
| Cc1ccc(-n2nnnc2CSc2nnc(-c3ccc(O)cc3)o2)cc1 | -9.5% |
| CCc1ccccc1N1C(=O)CC(N2CCc3ccccc32)C1=O (stereo not given) | 5.4% |
| COc1cc(/C=C(/C#N)c2nc(-c3cc4ccccc4oc3=O)cs2)ccc1O | -5.6% |
| Cc1ccc(S(=O)(=O)NCc2ccncc2)c(C)c1C | -1.9% |
| CCOC(=O)c1ccc(N2CN(CC)CNC2=S)cc1 | -24.9% |
| COc1ccc(CC(=O)OCC(=O)c2ccc(F)cc2)cc1 | -1.1% |
| COc1ccc(-n2ccsc2=S)cc1 | -1.6% |
| COC(=O)[C@H]1CC2(CC=C(C)C)C(=O)[C@@](CC=C(C)C)(C(=O)C(C(=O)c3ccccc3)=C2OC)C1(C)C (tested in a mixture with another compound) | -2.9% |
| COc1ccccc1N1CCN(C(=O)c2cc(C)oc2C)CC1 | -0.4% |
| CCOC(=O)CSCC(=O)Nc1ccc(S(=O)(=O)N2CCCCC2)cc1 | -10.1% |
| COc1ccccc1CNC(=O)c1cc(S(=O)(=O)N2CCCCC2)c[nH]1 | 10.8% |
| COCCCNC(=S)Nc1ccc2c(c1)OCCO2 | 4.7% |
| C#CCOCCOCCOCCNc1nc(N2CCN(C(=O)CCCCCCCCCCNC(=O)[C@@H](CCC(=O)O)n3cc(CCCCCN)nn3)CC2)nc(N2CCN(C(=O)CCCCCCCCCCNC(=O)[C@@H](CCC(=O)O)n3cc(CCCCCN)nn3)CC2)n1 | -7.2% |
| Clc1ccccc1Cc1noc(CN2CCN3CCCC3C2)n1 (stereo not given) | -3.5% |
| COc1ccc(CCN2CC(C(=O)N(C)CCOc3ccccc3)CCC2=O)cc1 (stereo not given) | 4.9% |
| O=C(CNc1cccc(C(F)(F)F)c1)N/N=C/c1cn(-c2ccccc2)nc1-c1ccccc1 | -14.5% |
| CCn1c(=N)c(C(=O)NCc2cccnc2)cc2c(=O)n3cc(C)ccc3nc21 | 3.4% |
| COC(=O)c1ccc2c(=O)n(CCCN3CCCC3=O)c(=S)[nH]c2c1 | -4.8% |
| CC(OC(=O)CNS(=O)(=O)c1ccc(C#N)cc1)C(=O)Nc1ccc(Cl)cn1 (stereo not given) | -0.4% |
| CN(C)S(=O)(=O)c1ccc(C(=O)N2CCN(S(=O)(=O)c3ccc4c(c3)OCCO4)CC2)cc1 | -0.7% |
